Ecoli growth: E. coli growth inhibition | 330,000 tested, 0.21% active | OD600 absorbance (test concentration not listed) | AID 1053175 | Escherichia coli growth, OD600, 23 h; hits give low values;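 active = OD600 absorbance below the run mean of sample wells minus 3.6 SD, in any replicate, cut at about 0.56 in these data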;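 note: stock transfer was 300 nL into about 60 µL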
HNF4A DNA FP: change in binding of human HNF4 alpha to DNA; P41235; HNF4a-FITC DNA binding, fluorescence polarization, 1 h; activity change, % at 10 µM; 360,000 tested, 0.3% active; AID 1224865; in the data active = activity change above about 30%, passing the limit was not always enough;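 note: controls were the assay level and a saturating level of protein; the project sought stronger binding though the title names inhibitors; some compounds called inactive have numbers as strong as hits; positive values seem to mean higher polarization but the record does not say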
FGF22 binding: binders of recombinant human FGF22 by thermal shift | SYPRO orange fluorescence; percent of sucrose octasulfate shift, DMSO zero | 340,000 tested, 1.5% active | calls only at 9.99 µM | Q9HCT0;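 active = melting point raised past a set limit in the mean and every replicate; inconclusive = no clear call; three in four hits are not shown here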
Target sequence (Q9HCT0 whole entry, looked up): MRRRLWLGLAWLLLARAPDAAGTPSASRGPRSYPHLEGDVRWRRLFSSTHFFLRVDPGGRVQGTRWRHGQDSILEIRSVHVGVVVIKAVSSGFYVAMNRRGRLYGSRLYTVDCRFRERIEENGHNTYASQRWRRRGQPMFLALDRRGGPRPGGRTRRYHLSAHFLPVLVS
ALR H2O2 inh: inhibitors of human sulfhydryl oxidase ALR. purified ALR, DTT oxidation, H2O2 HRP-luminol luminescence. 290,000 tested, 3.8% active. P55789. inhibition, % (test concentration not listed);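 active = mean and each replicate at 75% or more; inconclusive = only one of the two met; inactive = neither met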;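 note: stock transfer was 7.5 nL into about 7.5 µL; 0% = neutral wells and 100% = wells with inactivated enzyme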
Target sequence (P55789 whole entry, looked up): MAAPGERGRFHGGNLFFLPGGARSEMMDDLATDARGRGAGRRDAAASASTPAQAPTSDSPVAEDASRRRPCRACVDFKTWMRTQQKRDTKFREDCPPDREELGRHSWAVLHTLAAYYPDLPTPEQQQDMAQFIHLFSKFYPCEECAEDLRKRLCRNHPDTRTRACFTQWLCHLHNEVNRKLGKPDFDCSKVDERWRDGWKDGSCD
Vif TR-FRET: HIV-1 Vif–A3G interaction blockers – biochemical, TR-FRET, GST-Vif 1-94, biotin-A3G peptide, dose response retest, primary screen (AID 1117319); TR-FRET GST-Vif / biotin-A3G peptide binding; higher % means a stronger effect; test concentration not given here; strong numbers were not always called active; 260,000 tested, 0.57% active; inhibition, %; hits with a dose series show IC50 in µM;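 active = above the screen mean plus three standard deviations and confirmed in dose response; inconclusive = results disagree or hit not tested in dose response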;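 note: Vif residues 1-94 fused to GST binding biotinylated APOBEC3G peptide 110-148; 0% = full assay without inhibitor and 100% = GST in place of GST-Vif; retest series ran down from 100 µM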
AF4-AF9 inh: MLL-AF4/AF9 protein interaction inhibition; AlphaScreen, biotin-AF4 peptide binding to FLAG-AF9; inhibition, % at 10 µM; 350,000 tested, 0.47% active;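 active = every replicate reaching a set inhibition limit, whatever the replicate mean, cut at about 25% in these data; inconclusive = mean inhibition reaches that limit but some replicates miss it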;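 note: 0% = plate neutral control median and 100% = total signal loss; the record names both 10 and 1 µM as test concentration; the first replicate is given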
Target sequence (P42568 whole entry, looked up): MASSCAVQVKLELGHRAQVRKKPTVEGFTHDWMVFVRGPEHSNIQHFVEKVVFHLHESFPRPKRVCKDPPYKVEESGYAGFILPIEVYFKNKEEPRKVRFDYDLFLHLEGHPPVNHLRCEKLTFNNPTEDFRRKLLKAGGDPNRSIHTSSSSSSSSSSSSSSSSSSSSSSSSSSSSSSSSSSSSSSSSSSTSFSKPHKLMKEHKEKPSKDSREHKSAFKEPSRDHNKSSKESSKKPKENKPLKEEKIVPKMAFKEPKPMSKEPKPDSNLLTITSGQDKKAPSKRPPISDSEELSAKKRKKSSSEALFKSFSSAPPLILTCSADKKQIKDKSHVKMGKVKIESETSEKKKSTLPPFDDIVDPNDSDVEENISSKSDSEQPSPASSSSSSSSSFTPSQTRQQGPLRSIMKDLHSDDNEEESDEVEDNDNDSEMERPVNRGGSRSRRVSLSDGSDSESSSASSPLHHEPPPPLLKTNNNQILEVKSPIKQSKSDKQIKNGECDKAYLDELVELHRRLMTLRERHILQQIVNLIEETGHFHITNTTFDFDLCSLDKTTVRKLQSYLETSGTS
rRNA inh HTS: selective bacterial rRNA inhibition in E. coli. E. coli WT GFP vs humanized-ribosome RFP mutants, fluorescence, 24 h; hits give low values; DMSO median 0, no signal -100. GFP signal change (wild-type ribosome), % (no concentration beside the values). 350,000 tested, 1.6% active. AID 720706;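 active = significant combined selectivity score with lowered wild-type GFP, culture density cut under 30%, mutant RFP and density less affected; inactive = any of these conditions unmet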; note: one replicate is shown; some compounds called inactive have numbers as strong as hits
rRNA inh HTS OD600: recorded beside rRNA inh HTS, whose call it bears; OD600 change, %; measured here: OD600 growth;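 optical density of the mix in the first replicate; 0 = DMSO median and -100 = no signal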
rRNA inh HTS RFP: recorded beside rRNA inh HTS, whose call it bears; RFP signal change, %; measured here: RFP humanized mutant strains;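 first replicate; 0 = DMSO median and -100 = no signal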
* = called active by the depositor; i = inactive; u = inconclusive; x = no result given; & = joins results of further samples. A portion of the library; count on the stated rates, not on these rows.

SMILES	Ecoli growth	HNF4A DNA FP	FGF22 binding	ALR H2O2 inh	Vif TR-FRET	AF4-AF9 inh	rRNA inh HTS	rRNA inh HTS OD600	rRNA inh HTS RFP
COc1cc(CN2CCNC(=O)C2CC(=O)N2CCc3ccccc3C2)cc(OC)c1 (configuration not stated)	0.634	4.9	i	-19.6	x	0.3	10.3	8.0	5.7
COc1ccc(OC)c(S(=O)(=O)N2CCN(C(=O)CCc3ccccc3)CC2)c1	0.674	0.6	i	-5.7	-1.5%	0.7	3.3	-10.6	3.1
COc1ccc(-c2nn(-c3ccccc3)cc2CN(C)CCn2ccnc2C)c(F)c1	0.635	1.2	i	x	11.6%	16.5	-2.6	-6.1	6.4
CCOC(=O)C1=C(C)N=c2sc(=Cc3cc(Cl)c(OCC(=O)O)c(Cl)c3)c(=O)n2C1c1cccc(OC)c1 (configuration not stated)	x	97.2*	i	x	x	4.7	x	x	x
CCCC(=O)OC[C@H]1CN(C2CCCC2)S(=O)(=O)c2c(Oc3ccc(F)cc3OC)cccc2O1	x	x	i	x	x	-1.5	11.0	10.3	-0.1
O=c1oc(C2(O)CCCCC2)cc2ccc(-c3ccc4[nH]ccc4c3)cc12	0.732	-0.8	i	-4.3	x	-3.0	0.4	5.7	0.6
O=C(NCC1CCCC(CNC(=O)Nc2ccc(Cl)cn2)C1)Nc1ccc(Cl)cn1 (configuration not stated)	0.707	-4.8	i	-5.3	18.1%	-3.8	6.6	0.8	2.5
CC(C)C(=O)N1CCN(c2ccccc2NC(=O)COc2ccc(C3CCCCC3)cc2)CC1	0.656	-0.9	i	-31.6	x	0.1	2.7	5.7	-0.5
C[C@@H]1CCCCO[C@H](CN(C)S(=O)(=O)c2ccc(F)cc2)[C@@H](C)CN([C@@H](C)CO)C(=O)c2cc(NS(=O)(=O)c3cn(C)cn3)ccc2O1	x	x	i	x	x	-11.0	-2.0	-2.0	0.9
COc1ccc(S(=O)(=O)N2CCOC23CCN(S(=O)(=O)c2cc(C)ccc2C)CC3)cc1	0.702	-0.7	i	-2.1	-1.0%	1.0	-2.0	3.2	-1.2
O=C(Nc1ccc(S(=O)(=O)N2CCCCC2)cc1)C1CC(=O)N(Cc2ccccc2)C1 (configuration not stated)	0.648	-3.5	i	-14.5	-2.7%	-37.6	-0.5	-4.0	-0.3
COc1nn(-c2nc(-c3ccccc3)cc(C(F)(F)F)n2)cc1[N+](=O)[O-]	0.689	1.2	x	-0.7	-0.4%	x	x	x	x
COCCCNC(=O)CN1C(=O)COc2ccc(S(=O)(=O)N3CCCCCC3)cc21	0.72	-1.5	i	-15.7	x	-4.3	3.0	2.8	-0.5
O=c1oc2cc(O)ccc2cc1-c1ccccc1	0.673	3.1	i	90.7*	x	-4.7	-5.2	-22.5	-8.1
NNC(=O)Cn1cnc2ccccc21	0.634	10.0	i	-2.7	8.4%	-1.1	-18.7	-15.2	2.0
CC(=O)Nc1ccc(CN2CCCC(C(=O)c3cccc(C(F)(F)F)c3)C2)cc1 (configuration not stated)	0.712	-1.1	i	-9.1	-1.8%	0.2	-0.3	3.1	-3.3
Cc1ccc(S(=O)(=O)N2CCCCC2)cc1NC(=O)CCNC(=O)c1ccccc1Cl	x	0.7	i	x	x	-2.1	-1.2	18.9	5.5
O=C(CCn1c(=O)oc2ccccc21)Nc1cccc(Cl)c1	0.757	0.8	i	-10.3	-0.8%	1.1	-4.7	-4.2	-0.6
C=CCN(C(=O)OC(C)(C)C)S(=O)(=O)NCc1ccccc1	0.65	8.3	i	-4.7	x	-4.0	6.9	6.6	-0.6
COCC(=O)N1[C@H](C#N)[C@H](c2ccccc2-c2cccc(C)c2)[C@@H]1CO	x	x	i	x	x	1.5	4.9	17.2	-0.5
CCOC(=O)C1(C)CCN1C(=O)c1cc(C)n(C(C)(C)C)n1 (configuration not stated)	x	1.9	i	x	x	-3.7	2.6	5.0	-1.5
O=C(/C=C/[C@H]1O[C@@H](n2ccc(=O)[nH]c2=O)[C@H](O)[C@@H]1O)NC(c1ccccc1)c1ccccc1	x	6.3	i	x	x	-2.6	x	x	x
c1ccc2c(c1)CN1C(=N2)COc2ccccc2C1c1nc2ccccc2[nH]1 (configuration not stated)	x	2.5	i	x	x	1.6	2.2	5.4	-1.3
CC(C)c1[nH]nc2c1C(Cc1ccccc1)C(C#N)=C(N)O2 (configuration not stated)	0.697	4.3	x	x	4.7%	x	x	x	x
Cc1[nH][nH]c(=O)c1C(c1c(C)[nH][nH]c1=O)c1cn(Cc2ccc(F)cc2)c2ccccc12	0.648	-1.3	x	-4.1	6.7%	x	x	x	x
(listing goes on)
SMILES	Ecoli growth	HNF4A DNA FP	FGF22 binding	ALR H2O2 inh	Vif TR-FRET	AF4-AF9 inh	rRNA inh HTS	rRNA inh HTS OD600	rRNA inh HTS RFP
COc1ccc(NC(=O)C2c3ccccc3OCC(=O)N2C2CC2)cc1 (configuration not stated)	x	3.3	i	x	x	-2.0	x	x	x
CC[C@H](CO)Oc1cc(NCc2ccc(Cl)c(Cl)c2)c2ncn(C(C)C)c2c1	x	3.0	i	-2.6	x	x	-17.0	-15.6	3.0
Clc1ccc(C2=NCCN2)cc1	0.642	-7.9	i	3.4	-7.7%	-7.1	23.4	21.2	2.8
O=S(=O)(NCCC1=CCCCC1)c1cccc(S(=O)(=O)N2CCOCC2)c1	0.725	-1.3	x	-4.7	0.8%	x	x	x	x
O=S(=O)(Nc1cc(Sc2cccc3cccnc23)c(O)c2ccccc12)c1ccc(F)cc1	0.681	x	i	x	1.1%	12.7	x	x	x
CCCNC(=O)COC(=O)c1cccnc1Nc1ccccc1F	0.674	-0.1	x	x	-1.2%	x	x	x	x
O=C(/C=C/c1ccccc1)NCCc1ccccc1	0.69	0.2	i	10.0	x	1.4	x	x	x
CCN(CC)C(=O)[C@H]1CC(CC(=O)NCc2cccc(C(F)(F)F)c2)C(=O)N2CCc3c([nH]c4ccccc34)[C@]12C (some centres not stated)	0.681	-0.6	i	x	-4.1%	2.5	1.6	7.7	-0.9
O=c1cnn(Cc2c(Cl)cccc2Cl)c2ccccc12	0.657	-1.1	i	0.1	x	2.5	-7.6	-10.9	-4.5
NS(=O)(=O)c1ccc(CCn2c(=S)[nH]c3ccccc3c2=O)cc1	0.622	1.0	i	3.0	0.0%	-1.1	-16.3	-12.4	-12.4
Cc1ccnc(NC(=O)CCC(=O)N(CC(=O)NCc2ccc(F)cc2)CC2CCCO2)c1 (configuration not stated)	0.684	-0.1	i	-2.9	x	0.7	-3.7	8.1	0.5
Clc1ccc(CNc2ccc3nnc(-c4ccccc4)n3n2)cc1	0.702	1.8	i	x	-7.5%	-1.7	2.9	2.9	-4.3
CC(=O)c1ccc(NC(=O)COC(=O)CCC(=O)c2cccs2)cc1	0.657	-1.1	i	-3.1	x	-5.8	-1.0	6.6	11.4
CCCn1c(C)cc(/C=C(\C#N)C(=O)OCC(=O)NC(=O)NC(C)(C)C)c1C	0.728	-2.4	x	-7.7	17.3%	x	x	x	x
Cc1cc(/C=N/NC(=O)c2ccccn2)c(C)n1-c1cccc([N+](=O)[O-])c1	x	-0.3	x	6.5	10.7%	7.7	0.7	-6.7	-5.8
O=C(/C=C/c1cccc(Cl)c1)NCc1ccncc1	0.717	0.2	i	49.3	x	-1.5	5.0	-0.2	-4.1
Cc1ccc(C)c2[nH]c(=O)c(CN(Cc3cccnc3)C(=S)NCc3ccco3)cc12	0.673	5.0	i	-0.1	u	5.1	-13.1	-9.0	10.4
COc1cccc(NC(=O)CN(C)C(=O)Cc2ccc3c(c2)OCCO3)c1	0.632	0.1	i	x	-1.9%	3.4	7.2	7.8	0.8
COc1ccc(C#Cc2ccc([C@H]3[C@H]4CN(C(=O)NC(C)C)CC(=O)N4[C@H]3CO)cc2)cc1	x	x	i	x	x	-5.7	-1.5	5.3	-1.9
COc1ccc(C(=O)/C=C/c2ccc(OCc3ccccc3)cc2)cc1CSCC(=O)O	0.612	-9.5	x	99.1*	x	4.0	-57.6	-74.8	-18.7
COc1ccc(C)cc1NC(=O)CCS(=O)(=O)c1cccc2nonc12	0.699	3.4	x	-14.0	0.0%	x	x	x	x
CCOC(=O)c1ccc(S(=O)(=O)N2CCN(c3ccccn3)CC2)cc1	0.714	0.6	i	x	x	-20.3	3.3	-3.9	-1.5
C[C@@H]1CN([C@@H](C)CO)C(=O)CCCn2nncc2CO[C@H]1CN(C)S(C)(=O)=O	x	-1.1	i	x	-5.9%	0.0&-0.2&-1.9	2.2&1.1	9.9&3.7	-2.7&-2.5
COc1ccc(/C=N/NC(=O)c2cc(C)n(-c3ccccc3)c2C)cc1OC	x	1.1	i	0.8	14.7%	-0.1	-7.3	-7.0	1.1
CNC[C@@H]1Oc2ccc(NS(=O)(=O)c3ccccc3)cc2C(=O)N([C@H](C)CO)C[C@H]1C	x	x	i	x	x	2.3	8.9	11.2	1.2
Following part.
SMILES	Ecoli growth	HNF4A DNA FP	FGF22 binding	ALR H2O2 inh	Vif TR-FRET	AF4-AF9 inh	rRNA inh HTS	rRNA inh HTS OD600	rRNA inh HTS RFP
CCOC(=O)C1(CC2CCCCO2)CCN(C(=O)NCc2ccccc2)CC1 (configuration not stated)	0.675	-1.1	i	-3.8	-2.8%	-1.0	6.0	-6.8	2.9
CC(C)c1nc2sc3c(=O)n(N)cnc3c2c2c1COC(C)(C)C2	0.702	2.7	i	x	x	0.0	3.2	13.4	2.4
CC(=O)Oc1ccc(C(=O)[C@H]2[C@H]3C(=O)N(c4ccc(C)cc4)C(=O)[C@H]3[C@@H]3C=CC=NN32)cc1	0.642	15.5	i	0.9	x	9.7	9.9	10.1	5.4
Cc1ccc(NC2Sc3ccccc3NC2=O)cc1 (configuration not stated)	0.673	4.1	i	10.1	-2.5%	-8.7	0.3	-4.9	-0.2
CCCCCCCNC(=O)CN1N=C(c2ccc(C)cc2)CCC1=O	0.656	0.9	i	1.7	3.5%	0.5	-0.9	-5.2	0.1
Cc1cc(Cl)c2oc(C(=O)N(C)CCCCN3CCOCC3)c(C)c2c1	0.727	-2.9	i	x	x	6.1	-1.3	-3.9	0.4
O=C(C1CCC1)N1CC2(C1)[C@@H](c1ccccc1)[C@@H](CO)N2C(=O)NC1CCCC1	x	x	i	x	x	-11.6	3.9	12.4	-2.6
C[C@H](CO)N1C[C@H](C)[C@@H](CN(C)C(=O)c2ccc(F)cc2)Oc2cc(-c3cccc(C#N)c3)ccc2S1(=O)=O	x	x	i	x	x	1.4	-8.4	-16.7	2.2
O=C(Nc1cccc(F)c1)N1CC=C(n2c(=O)[nH]c3ccccc32)CC1	0.727	-3.1	x	-6.3	u	x	x	x	x
CCOC(=O)c1cc(-c2ccc(OC)cc2)n(CCC(=O)NCCN2CCC(C)CC2)c1C	0.691	0.4	i	4.4	x	11.8	3.4	0.4	0.9
CC(C)Cn1c(=S)[nH]c2ccccc2c1=O	0.656	3.0	i	-0.3	-6.8%	-16.0	1.6	-9.4	-0.1

4 consecutive compounds already listed, quoted:
SMILES	Ecoli growth	HNF4A DNA FP	FGF22 binding	ALR H2O2 inh	Vif TR-FRET	AF4-AF9 inh	rRNA inh HTS	rRNA inh HTS OD600	rRNA inh HTS RFP
CCOC(=O)C1(CC2CCCCO2)CCN(C(=O)NCc2ccccc2)CC1 (configuration not stated)	0.675	-1.1	i	-3.8	-2.8%	-1.0	6.0	-6.8	2.9
CC(C)c1nc2sc3c(=O)n(N)cnc3c2c2c1COC(C)(C)C2	0.702	2.7	i	x	x	0.0	3.2	13.4	2.4
CC(=O)Oc1ccc(C(=O)[C@H]2[C@H]3C(=O)N(c4ccc(C)cc4)C(=O)[C@H]3[C@@H]3C=CC=NN32)cc1	0.642	15.5	i	0.9	x	9.7	9.9	10.1	5.4
Cc1ccc(NC2Sc3ccccc3NC2=O)cc1 (configuration not stated)	0.673	4.1	i	10.1	-2.5%	-8.7	0.3	-4.9	-0.2
